VDR inh: inhibitors of human vitamin D receptor. VDR-SRC2-3 peptide fluorescence polarization, 2 h. AID 504847. P11473. 400,000 compounds, 0.93% hits. Potency, µM, for the others: max response, negative = inhibition, hits mostly inhibitors; active = well fitted inhibition curve with a large enough effect; inconclusive = small, poorly fitted or top-dose-only effect, or another doubt; inactive = no such curve, though single readings can be large or run the other way; also: series mostly up to about 120 µM
Target sequence (P11473 whole entry, looked up): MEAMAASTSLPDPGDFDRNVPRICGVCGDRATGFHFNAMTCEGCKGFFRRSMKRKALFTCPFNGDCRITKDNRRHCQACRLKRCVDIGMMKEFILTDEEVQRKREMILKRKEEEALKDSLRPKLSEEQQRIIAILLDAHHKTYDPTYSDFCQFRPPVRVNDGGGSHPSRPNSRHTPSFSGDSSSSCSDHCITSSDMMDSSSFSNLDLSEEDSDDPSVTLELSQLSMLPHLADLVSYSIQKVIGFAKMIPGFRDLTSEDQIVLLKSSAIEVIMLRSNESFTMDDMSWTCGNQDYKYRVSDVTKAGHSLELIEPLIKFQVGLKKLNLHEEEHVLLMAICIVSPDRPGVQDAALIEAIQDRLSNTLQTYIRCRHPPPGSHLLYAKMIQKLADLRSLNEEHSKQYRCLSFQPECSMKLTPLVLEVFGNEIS
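Fluorescence polarization assay measuring small-molecule disruption of VDR binding to the coregulator peptide SRC2-3. Compounds were pin-transferred (23 nl) into the reagent mix and incubated 2 h at room temperature before reading.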
Numbers without * were called inactive; ? = inconclusive; & = joins results of further samples. % is scaled to controls: 0 for no effect and ±100 for the full control effect; potency is read from the fitted curve at half-maximal effect. These rows are one share of the data; the hit share may differ from the screen's.

SMILES	VDR inh
Cn1cc(C(=O)NCCc2ccccc2)c(=O)c2cc(S(=O)(=O)N3CCCCC3)ccc21	-8.1%
O=C(NNC(=O)c1cnccc1C(F)(F)F)c1ccc(Cl)cc1	-19.9%
Cc1ccc(CN2C(=O)CCC2C(=O)NCCCN2CCC(C)CC2)cc1 (stereo not drawn)	21.9%
Cc1ccc(NC(=O)C2C3C=CC4(O3)C2C(=O)N(CCCN2CCCC(C)C2)C4C(=O)NC2CCCCC2)cc1 (stereo not drawn)	-2.4%
Cc1cc(C)cc(C(=O)NCC(=O)OCc2cc([N+](=O)[O-])cc3c2OCOC3)c1	16.2%
O=C(NN1CCOCC1)c1cccc(Cl)c1	-17.0%
O=C(CCn1ccc2cc(S(=O)(=O)N3CCCC3)ccc21)NCc1cccc(F)c1	?
COc1ccc(N=C(N(C)C)P(=O)(N(C)C)N(C)C)cc1	5.6%&12.8%
Oc1ccccc1CNc1ncc(Br)cc1Br	-9.7%
Cc1ccc([N+](=O)[O-])c2c1C(N1CCCC1)C(C)(C)O2 (stereo not drawn)	-4.9%
O=C1CC(C(=O)NCc2ccccc2)C2(CCCC2)O1 (stereo not drawn)	0.7%
CC(C)(O)C(=O)NNC(=S)Nc1ccc(F)c(Cl)c1	-15.5%
CC(NC(=O)CSc1ncnc2nc[nH]c12)c1ccccc1 (stereo not drawn)	3.0%
Cc1noc(C)c1COc1ccc(C(=O)OCC(=O)c2ccc3c(c2)OCCO3)cc1	6.9%
COc1cc(OC)c(C(=O)CCCCN2CCC3(CC2)NC(=O)NC3=O)cc1NS(=O)(=O)c1ccc(C(F)(F)F)cc1	2.9%&-2.1%
Clc1ccc2[nH]c3c(NCCN4CCOCC4)ncnc3c2c1	-4.3%
CCCCCCC1CCC(C(=O)N2CCOCC2)CC1 (stereo not drawn)	-3.8%
Fc1ccc(-c2nc(-c3cccs3)no2)cc1	-13.4%
CCN(CC)CCCNC(=O)Cn1nc(N2CCN(c3ccccc3OC)CC2)ccc1=O	-2.0%
Cc1cc(C)cc(NC(=O)Nc2ccc(-n3ccc(C(F)(F)F)n3)cc2)c1	19.1%
COC(=O)c1c(NC(=O)CN2CCN(c3ccccc3Cl)CC2)sc(C)c1C	15.3%
COC(=O)[C@H](C)NC(=O)NC1CCN(Cc2ccccc2)CC1	13.9%
COc1ccc(-c2nn3c(-c4ccccn4)nnc3s2)cc1OC	2.2%
C1CN(CC23CC4CC(CC(C4)C2)C3)CCO1	26.5%
CCCSc1ncccc1C(=O)O	-7.1%
Cc1ccc(Cl)cc1NC(=O)c1ccc2snnc2c1	11.1%
Cc1ccc(N2C(=O)CC(N3CCN(S(=O)(=O)c4ccccc4)CC3)C2=O)c(C)c1 (stereo not drawn)	-3.7%
CC1(C)NC(=O)N(CC(=O)N2CCN(c3cccc(C(F)(F)F)c3)CC2)C1=O	8.8%
O=C(OCC(=O)N1CCN(C(=O)c2ccco2)CC1)c1ccccc1C(=O)c1ccc(Cl)cc1	4.6%
NC1=NC2(CCCCC2)N=C(Nc2ccc(F)cc2F)N1	-4.7%
CC(C)n1cnc2c(Nc3cccc(F)c3)nc(NCCO)nc21	-0.6%
Cc1cc(NC(=O)c2noc3c2CCCC3)nn1Cc1ccc(Cl)cc1	-23.9%
Cc1cccn2c(=O)nc(SCC(=O)N3CC(C)OC(C)C3)nc12 (stereo not drawn)	2.2%
Cc1ccc(OCC(=O)Nc2ccc(C)c(S(=O)(=O)N3CCCCCC3)c2)c([N+](=O)[O-])n1	4.7%
CSc1nnc(C)c(=O)n1COC(=O)COc1ccccc1C	-11.2%
COc1ccc(C2NC(=O)CCC2[N+](=O)[O-])c(OC)c1OC (stereo not drawn)	-7.3%
CCOC(=O)C1=C(C)OC(N)=C(C#N)C1c1cc2c(cc1Br)OCO2 (stereo not drawn)	4.9%
Cc1ccc2nc(-c3ccc(-c4cccc(Cl)c4)cc3)c(NCc3ccccc3)n2c1	-8.0%
O=C(/C=C/c1ccccc1)Nc1cc(-c2nc3ccccc3o2)ccc1Cl	-6.0%
CCOC(=O)N1CCC(NC(=O)C2CCN(C(=O)N3CCOc4ccccc43)CC2)CC1	-4.8%

Look-ups from the results shown.
CCOC(=O)C1=C(C)OC(N)=C(C#N)C1c1cc2c(cc1Br)OCO2 (stereo not drawn) @ VDR inh = 4.9%
Cc1ccc(OCC(=O)Nc2ccc(C)c(S(=O)(=O)N3CCCCCC3)c2)c([N+](=O)[O-])n1 @ VDR inh = 4.7%
COc1ccc(-c2nn3c(-c4ccccn4)nnc3s2)cc1OC @ VDR inh = 2.2%
O=C(OCC(=O)N1CCN(C(=O)c2ccco2)CC1)c1ccccc1C(=O)c1ccc(Cl)cc1 @ VDR inh = 4.6%
CC(C)n1cnc2c(Nc3cccc(F)c3)nc(NCCO)nc21 @ VDR inh = -0.6%

Compounds from the list above containing bromine, in the order listed:
SMILES	VDR inh
Oc1ccccc1CNc1ncc(Br)cc1Br	-9.7%
CCOC(=O)C1=C(C)OC(N)=C(C#N)C1c1cc2c(cc1Br)OCO2 (stereo not drawn)	4.9%

(further entries)
SMILES	VDR inh
CC(=O)c1cc(C#N)c(N2CCCCC2)nc1C	-2.5%
O=C(O)c1ccccc1C(=O)c1cccc2ccccc12	?
Cc1ccc(NC(=O)[C@@H](c2ccccc2)N2Cc3ccccc3C2=O)cc1F	2.5%
Cc1nc([N+](=O)[O-])c(Br)n1CC(=O)c1ccc(F)cc1	6.0%
C[C@H]1CN(Cc2ccccc2)C(=O)[C@@H]1CC(=O)NCc1ccccc1	-27.3%
CCOC(=O)C(C(=O)OCC)C1CS(=O)(=O)CC1C(C(=O)OCC)C(=O)OCC (stereo not drawn)	-8.6%
CCCCn1c(C2CCCCC2)nc2cc3[nH]c(=O)c(C(C)C)nc3cc21	-19.8%
CCOc1cccc(/C=N/NC(=S)Nc2cc(S(=O)(=O)N3CCOCC3)ccc2N2CCOCC2)c1O	-12.3%
CCOc1cc(C2C(C(=O)OC)=CN(C3CCCC3)C=C2C(=O)OC)cc(Br)c1O	-3.3%
Cc1csc(CNc2ncnc3ccc(-c4cccc(Cl)c4)cc23)c1	-15.1%
Cc1c(/C=C2\NC(=O)NC2=O)c2ccccc2n1C	-10.9%
COc1ccc(S(=O)(=O)c2nnn(-c3ccc(C)c(Cl)c3)c2C)cc1	-3.8%
CNc1ccc(S(=O)(=O)NCC(=O)OCC(=O)Nc2cccc(Cl)c2Cl)cc1[N+](=O)[O-]	-19.4%
COC(=O)c1ccc(Cn2c(C)cc(C)[n+]2C)o1	-24.2%
COc1ccc(NC(=O)Cn2c(=O)c3cccn3c3ccccc32)cc1Cl	19.2%
COc1ccc(C(=O)C(C)Sc2nnc(C3CC3)n2C2CC2)cc1 (stereo not drawn)	4.9%
CCOC(=O)c1c(NC(=O)c2ccc(Br)cc2)sc2c1CCCC2	-13.1%
O=C(COC(=O)c1cccc(S(=O)(=O)N2CCc3ccccc32)c1)NC1CCS(=O)(=O)C1 (stereo not drawn)	3.4%
Cc1ccnc2nc(C(=O)OCC(=O)NC3CCCC(C)C3C)nn12 (stereo not drawn)	-14.0%
COc1ccc(COc2ncnc3ccc(Br)cc23)cc1F	-12.3%
O=C(COc1ncnc2ccccc12)NCc1ccco1	-1.9%
Cc1ccc(CN=c2c([N+](=O)[O-])nn(-c3ccc(Cl)cc3)n2O)cc1	-15.6%
COc1ccc(CNC(=O)Cc2c(C)c3c(cc(C)c4c(C)c(C)oc43)oc2=O)cc1OC	19.6%
O=C(Cn1cnc([N+](=O)[O-])c1)Nc1ccc(F)c(Cl)c1	11.4%
O=C(c1ccc(Cl)cc1)N1CCN(CCOc2ccccc2)CC1	4.1%
CCOC(=O)N1CCN(C(=O)/C=C/c2ccc(OC)cc2)CC1	2.8%
CCOc1ccc(CNC(=O)c2sc3nc(C)cc(C)c3c2-n2cccc2)cc1	1.5%
O=C(CN1C(=O)CCSc2ccc(S(=O)(=O)N3CCCC3)cc21)NCc1ccccc1Cl	1.5%
COc1cccc(-c2nc3ccccc3s2)c1O	1.1%
COc1cc(/C=C(\NC(=O)c2ccccc2)C(=O)N2CC3CC(C2)c2cccc(=O)n2C3)cc(OC)c1OC (stereo not drawn)	8.8%
CC(C)c1ccc(NC(=O)N2CCN(c3ccc(Cl)c(Cl)c3)CC2)cc1	6.4%
c1ccc2c(c1)CCN(c1ncnc3nc[nH]c13)C2	-11.4%
Fc1ccc(CCNC(=S)Nc2ccc(F)c(Cl)c2)cc1	-0.6%
CCc1nnc(NC(=O)C2CC(=O)N(c3ccc(C)cc3)C2)s1 (stereo not drawn)	-10.9%
CCOC(=O)c1cc2c(N)c(C(=O)c3ccc(Br)cc3)sc2[nH]c1=O	6.0%
O=C(Cc1ccc(Cl)cc1)NCCN1CCCC1	-6.6%
Cc1cc(C)cc(NC(=O)Cn2nnc(C(=O)NCc3cccs3)c2N)c1	0.3%
O=C(CSc1nnc(Cc2cccs2)n1Cc1ccco1)Nc1ccc(Cl)cc1Cl	-1.5%
O=C(O)c1ccc2c(=O)n3c(nc2c1)/C(=C/c1ccccc1Br)CC3	6.0%
CCNCc1cc(Cl)cc(OC)c1OC(C)C	-17.0%
S=C(NCCc1ccc(Cl)cc1)Nc1ccc(Cl)cc1Cl	?
CN(Cc1ccccc1)c1nc2c(c(=O)[nH]c(=O)n2C)n1Cc1ccccc1F	-8.4%
COC(=O)[C@H](CCSC)NS(=O)(=O)c1ccccc1Br	-9.6%
O=C(NCc1cccs1)C1CCN(c2nccs2)CC1	-15.7%
Nn1cnnc1SCC(=O)Nc1ccc2c(c1)OCCO2	0.5%
O=C(CSCc1ccc(Cl)cc1)NCc1ccc2c(c1)OCO2	-0.6%
CCOC(=O)c1sc(=S)n(CC)c1NC(=O)C1CC1	-14.5%
Cc1nn(CC(=O)Nc2ccc3c(c2)nc2n3CCOC2)c(=O)c2ccccc12	19.5%
CCN1CCN(c2ccc(S(=O)(=O)N3CCOCC3)cc2NC(=O)c2ccc(F)cc2Cl)CC1	17.9%
Cc1ccccc1N1CCN(CC(=O)Nc2ccccc2C(=O)NC2CC2)CC1	-8.4%
Cc1cc(C)cc(NC(=O)CSc2ccc(-c3ccccn3)nn2)c1	14.4%
CCCN(CCC)CC(O)COc1ccccc1C(=O)Nc1ccccc1 (stereo not drawn)	-16.0%
Cc1sc(NC(=O)CCCC(=O)O)c(C#N)c1C	2.9%
CCN(CC(=O)Nc1ccc(NC(C)=O)cc1)C(=O)COc1ccc2ccccc2c1	-26.1%
O=[N+]([O-])c1ccc(O)c(-c2ccnc3cc(-c4ccccc4)nn23)c1	1.5%
N#CC1=C(O)C(c2ccccc2)n2c1nc(=O)c1ccccc12 (stereo not drawn)	-12.0%
CCOc1ccccc1N(CC)C(=O)c1cc2ccc3cccnc3c2[nH]1	13.1%
CC(C)CCOc1ccc(C(=O)NCC(c2ccco2)N(C)C)cc1 (stereo not drawn)	-12.1%
O=C(COC(=O)c1cccc(F)c1)NCCC1=CCCCC1	-10.7%
O=C(Cc1cccc2ccccc12)Nc1nc(-c2cccc([N+](=O)[O-])c2)cs1	-2.8%

Shown with the structure last: 4 of the compounds above
VDR inh | mol
-6.0% | O=C(/C=C/c1ccccc1)Nc1cc(-c2nc3ccccc3o2)ccc1Cl
-4.8% | CCOC(=O)N1CCC(NC(=O)C2CCN(C(=O)N3CCOc4ccccc43)CC2)CC1
-2.5% | CC(=O)c1cc(C#N)c(N2CCCCC2)nc1C
? | O=C(O)c1ccccc1C(=O)c1cccc2ccccc12

Further entries
SMILES	VDR inh
COc1cc(CN(C(=O)Nc2ccccc2)c2ccccn2)cc(OC)c1OC	-1.6%
Cc1ccc(OCC(=O)NCCNC(=O)c2ccccn2)cc1	1.8%
COC(=O)C(=Cc1cc(Br)c(OC)c(Br)c1)C(=O)OC	8.91µM*
CC(C)(C)c1ccc(C(=O)NNC(=O)CCC(=O)Nc2ccccc2)cc1	6.6%
O=C(Nc1nnc(CCc2ccccc2)s1)c1cccs1	-4.4%
O=C(N1CCCCCC1)N1CCN(C(=O)N2CCCCC2)CC1	-12.0%
CN(C(=O)c1ccc2nc(N)sc2c1)c1ccccc1	-0.4%
CCCS(=O)(=O)c1nc(S(=O)(=O)c2ccc(C)cc2)c(N2CCN(CC)CC2)s1	-4.3%
Cc1ccc(CC(CC(=O)NCCc2ccc3c(c2)OCO3)C(=O)O)cc1 (stereo not drawn)	-2.6%
CCOc1ccc(OCCC(=O)OC(C)C(=O)Nc2ccc(Cl)cn2)cc1 (stereo not drawn)	2.6%
O=C(NC1CCCCC1)c1ccc(NS(=O)(=O)c2cccc3cccnc23)cc1	12.0%
CCOCCCn1c(NN)nc2ccccc2c1=O	-16.3%
Brc1ccc(-c2noc3c2-c2nc(-c4ccccc4)sc2CC3)cc1	-7.5%
Cc1ccc(C(=O)OC(C)CN2C(C)CCCC2C)cc1 (stereo not drawn)	-7.1%
Cc1sc2ncnc(NCCCn3ccnc3)c2c1C	0.8%
CCOC(=O)c1c(C)oc2ncnc(Nc3cccc(C(F)(F)F)c3)c12	-9.4%
O=C(COc1ccc2ccccc2c1)Nc1cccnc1Cl	-16.8%
COc1ccc(NCc2nnc(SCC(=O)Nc3ccccc3OC)o2)cc1	12.2%
CCOC(=O)c1cnc(-n2nc(C)cc2C)nc1NNc1nc(C)cc(C)n1	-5.1%
CCCCN(C)CCNC(=O)CCNC(=O)Cn1ccc2ccccc2c1=O	7.5%
CCOC(=S)SCC(=O)Nc1ncc(C)s1	-9.3%
CCCCOc1ccccc1C1C(C(=O)OC)=CN(CC)C=C1C(=O)OC	6.4%
O=C(Nc1cccc(C(=O)N2CCCCC2)c1)c1ccccc1Br	8.4%
O=C(Nc1nnc(-c2ccc3c(c2)OCCO3)o1)C1CCCCC1	9.7%
CC(C)(Oc1ccc(CCNC(=O)c2ccc(-c3ccc(Cl)cc3)o2)cc1)C(=O)O	11.2%
Nc1ccc2c(c1)C(=O)Cc1ccccc1S2	-16.8%
COC(=O)C1=C(C(=O)OC)[C@@H]2Nc3ccccc3[C@@]23C[C@@H](C(=O)OC)N(C(=O)NC2CCCCC2)C3=N1	9.4%
COc1ccc(C(=O)CCC(=O)N2CCN(c3ccc(N4CCOCC4)nn3)CC2)cc1	-26.6%

Screening data deposited in PubChem BioAssay by National Center for Advancing Translational Sciences (NCATS).
